VDR inh: blocks the human vitamin D receptor. Potency, µM, without a hit: max response, negative = inhibition, usual class: inhibitors. 400,000 tested, 0.93% active. P11473. AID 504847. VDR-SRC2-3 peptide fluorescence polarization, 2 h; active = well fitted inhibition curve with a large enough effect; inconclusive = small, poorly fitted or top-dose-only effect, or another doubt; inactive = no such curve, though single readings can be large or run the other way; also: series mostly up to about 120 µM
Target sequence (P11473 whole entry, looked up): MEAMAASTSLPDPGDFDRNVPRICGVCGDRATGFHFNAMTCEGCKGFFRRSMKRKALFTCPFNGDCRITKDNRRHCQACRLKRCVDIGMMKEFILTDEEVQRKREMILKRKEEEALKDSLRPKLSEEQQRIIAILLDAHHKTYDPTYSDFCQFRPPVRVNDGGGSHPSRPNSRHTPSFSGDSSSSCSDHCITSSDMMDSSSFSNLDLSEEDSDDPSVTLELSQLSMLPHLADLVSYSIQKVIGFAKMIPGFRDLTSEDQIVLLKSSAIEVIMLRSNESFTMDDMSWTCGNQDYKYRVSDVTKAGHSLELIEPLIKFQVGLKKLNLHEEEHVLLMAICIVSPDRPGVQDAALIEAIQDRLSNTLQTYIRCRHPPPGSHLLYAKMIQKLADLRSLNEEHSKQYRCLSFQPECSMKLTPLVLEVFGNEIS
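VDR–SRC2-3 interaction, FP format. Cmpds 23 nl via pintool, brief spin, 2 h ambient incubation.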
Active calls of the source: *; ? = inconclusive; & = joins results of further samples; [ ] = remark or other dose. % is scaled to controls: 0 for no effect and ±100 for the full control effect; potency is read from the fitted curve at half-maximal effect.

O=C1c2ccccc2NC(c2ccc(-c3ccc(Br)cc3)o2)N1O (stereo unspecified)
- VDR inh: 5%
O=c1oc(-c2cccs2)nc2ccc(Br)cc12
- VDR inh: 1%
COc1ccc(CCNC(=O)C2CCN(S(=O)(=O)c3cc(OC)ccc3OC)CC2)cc1
- VDR inh: -2%
Cc1cc2nc(-c3cccnc3SCC(=O)NCc3ccco3)[nH]c2cc1C
- VDR inh: -8%
Fc1ccccc1-c1nc2ccccc2[nH]1
- VDR inh: 16%
CCN(CC)c1ccc(S(=O)(=O)N2CCCCC2)cc1NC(=O)C1CSC2(C)CCC(=O)N12 (stereo unspecified)
- VDR inh: 0%
COc1cccc(CN2C(=O)C3(SCC(=O)N3c3ccc(C)c(Cl)c3)c3ccccc32)c1 (stereo unspecified)
- VDR inh: 10%
O=C(c1ccc(N2CCCC2=O)cc1)N1CCN(c2ccc(Cl)cc2)CC1
- VDR inh: -18%
CC1C/C(=C/c2ccccn2)C(=O)/C(=C/c2ccccn2)C1 (stereo unspecified)
- VDR inh: 28µM*
CN(C)/C=N/c1cc(=O)n(Cc2ccccc2)c(=O)n1C
- VDR inh: 31%[activator]
O=C(O)CCn1c(SCCc2ccccc2)nc2ccccc21
- VDR inh: 5%
CN(C)CCCOc1cccc(Cl)c1
- VDR inh: 4%
Cn1c(=O)n(C)c2cc(NC(=O)c3ccc(F)cc3)c(Br)cc21
- VDR inh: -8%
Cc1ccc(NC(=O)c2c(C(=O)Nc3ccccc3)sc3nc(C)cc(=O)n23)cc1
- VDR inh: 3%&16%
COc1ccc(NC(=O)COCc2cc(-c3ccco3)on2)cc1Cl
- VDR inh: 6%

CC(C)(C)OC(=O)N1CCC(c2nnc(SCc3ccccc3F)o2)CC1
- VDR inh: -2%
CC(=O)Nc1cccc(NC(=O)CSc2nccn2Cc2ccccc2)c1
- VDR inh: -6%&2%
Cc1ccc(C)c(SCC(=O)OC/C(O)=C(\C#N)c2nc3ccccc3[nH]2)c1
- VDR inh: -8%
CCc1nc(-c2cc(S(=O)(=O)N3CCN(c4ccccc4)CC3)ccc2OC)no1
- VDR inh: 13%
COc1cccc(CNC(=O)CN2C(=O)COc3ccc(S(=O)(=O)N4CCCCC4)cc32)c1
- VDR inh: -4%&-4%
COC(=O)C1C(=O)C2=C(CC1C)Nc1ccccc1NC2c1ccc(C)s1 (stereo unspecified)
- VDR inh: 6%
CCC(=O)Nc1cccc(-c2cnc3ccccc3n2)c1
- VDR inh: 4%
CC(=O)O[C@@H]1CC2C(C)(C)C(=O)C=C[C@]2(C)C2CC[C@]3(C)C(=CC[C@H]3C3CO[C@@H](C(C)(C)O)[C@H](O)C3)[C@@]21C (stereo partly specified)
- VDR inh: -16%
Cc1cc([N+](=O)[O-])nn1CCCC(=O)Nc1cc(Oc2ccccc2)cc([N+](=O)[O-])c1
- VDR inh: -12%
Cc1ccc(S(=O)(=O)N2CCC(C(=O)NCCCn3ccnc3)CC2)cc1
- VDR inh: 2%
CC1Cc2ccccc2N1C(=O)c1cnsn1 (stereo unspecified)
- VDR inh: 0%
Brc1ccc(-c2noc(CCc3ccccc3)n2)cc1
- VDR inh: -17%
CC(C)C[C@H](NC(=O)NC(C)C)C(=O)O
- VDR inh: 10%
COc1ccc(N2CCN(C(=O)COC(=O)c3c(-c4ccccc4)noc3C)CC2)cc1
- VDR inh: 23%
O=C(NNC(=O)C12CC3CC(CC(Cl)(C3)C1)C2)c1csc(N2CCOCC2)n1
- VDR inh: -5%

Structures listed above marked active in VDR inh.
CC1C/C(=C/c2ccccn2)C(=O)/C(=C/c2ccccn2)C1 (stereo unspecified)
- VDR inh: 28µM*

(listing goes on)
CC1(C)CC(C)(O)P(=O)(c2ccccc2)O1 (stereo unspecified)
- VDR inh: -6%
CCCCCN1C(C(=O)c2ccccc2)=C(NC(=O)c2ccccc2Cl)c2ccccc2S1(=O)=O
- VDR inh: -10%
COc1ccc(Cn2c(=O)c3cccnc3n(Cc3cccc(F)c3)c2=O)cc1
- VDR inh: -12%
C=CCn1c(C)cc(-c2csc(N)n2)c1C
- VDR inh: 41%[activator]
Cc1nc2c(cnn2-c2ccccc2Cl)c(=O)n1-c1ccc(C(C)C)cc1
- VDR inh: -18%&-8%
COc1ccc(-c2cc(=O)c3cc(O)ccc3o2)cc1
- VDR inh: 7%
CCOC(=O)c1ccc(CSc2nnc(C)n2N)o1
- VDR inh: -3%
CCS(=O)(=O)N1CCN(C(=O)c2ccccc2)CC1
- VDR inh: -9%
Cc1cc(C)c(NC(=O)CSc2ncc(S(=O)(=O)c3ccc(C(C)(C)C)cc3)c(=O)[nH]2)c(C)c1
- VDR inh: -13%
O=c1c2ccccc2ncn1CCOCCOc1cccc(Br)c1
- VDR inh: -15%
O=C(Nc1cccc(-c2cnc3ccccc3n2)c1)c1ccccc1
- VDR inh: 3%
Cc1cccc(C(CC(=O)O)n2cccc2)c1 (stereo unspecified)
- VDR inh: 0%
c1cc2c3c(cccc3c1)C(N1CCCCC1)=N2
- VDR inh: -3%
CC1CN(CC(O)COCc2ccc3c(c2)OCO3)CC(C)O1 (stereo unspecified)
- VDR inh: 3%
CCC(C)NC(=O)c1cc(Cl)c(NC(=O)C2=C(C)OCCS2)cc1OC (stereo unspecified)
- VDR inh: 7%

CCc1noc(C)c1C(=O)Nc1cccc(S(=O)(=O)N2CCCCCC2)c1
- VDR inh: -10%
CCc1nnc(SCC(=O)NC2CCCC2)nc1CC
- VDR inh: -2%
O=C(OCc1ccccc1)c1ccc2c(c1)-c1ccccc1C2=O
- VDR inh: -3%
NC(=O)COc1cccc(/C=N/NC(=O)c2ccc(-n3cccc3)cc2)c1
- VDR inh: -11%
Cc1c(-c2ccccc2)oc2c(C(=O)OCC(=O)Nc3ccc(F)cc3)cccc2c1=O
- VDR inh: -2%
COc1ccc(CN2CC(C(=O)NCCCN3CCCC(C)C3)CC2=O)cc1 (stereo unspecified)
- VDR inh: 19%
COc1ccc(C(=O)N/C(=C\c2cn(C)c3ccccc23)C(=O)NCCCN2CCOCC2)cc1
- VDR inh: 21%
COc1ccc(NC(=O)CCNS(=O)(=O)c2ccc3c(c2)c(=O)n(C)c(=O)n3C)cc1
- VDR inh: 12%
O=C(COC(=O)c1ccc(O)cc1O)NCCN1C(=O)CSC1=O
- VDR inh: 21%
C[C@H]1C(=O)N(S(=O)(=O)c2ccccc2[N+](=O)[O-])[C@H]1c1ccc(-c2ccccc2)cc1
- VDR inh: 7%
O=C(NCCCN1CCOCC1)c1ccc([N+](=O)[O-])cc1[N+](=O)[O-]
- VDR inh: -10%
CCN(CC1CCCN(CCc2cccc(OC)c2)C1)C(=O)c1ccc(COC)o1 (stereo unspecified)
- VDR inh: 6%
CN1CCN(c2ncc3nc(-c4cccc(C#N)c4)c(=O)n(CCc4ccccc4)c3n2)CC1
- VDR inh: -6%
Cc1ccccc1CNC(=O)CCC(=O)N1CCOc2ccccc21
- VDR inh: 5%
CC(C(=O)N1CCCCC1)N1C(=O)c2ccccc2C1=O (stereo unspecified)
- VDR inh: 1%

Part of the list above, set out differently.
VDR inh	smiles
7%	C[C@H]1C(=O)N(S(=O)(=O)c2ccccc2[N+](=O)[O-])[C@H]1c1ccc(-c2ccccc2)cc1
-2%	CCc1nnc(SCC(=O)NC2CCCC2)nc1CC
-2%	Cc1c(-c2ccccc2)oc2c(C(=O)OCC(=O)Nc3ccc(F)cc3)cccc2c1=O

(cont.)
O=C1c2nccnc2C(=O)N1Cc1ccccc1
- VDR inh: -21%
COc1ccc(C(=O)NC(=S)Nc2ccc(Cc3ccncc3)cc2)cc1
- VDR inh: 6%
CCNC(=O)CC1C(=O)N(c2cccc(OC)c2)C(=O)N1Cc1ccc(OC)c(OC)c1 (stereo unspecified)
- VDR inh: -10%
COc1ccc(C2(O)CCN(Cc3nnnn3Cc3ccc(C)cc3)CC2)cc1
- VDR inh: -13%
O=C(C1=NN[C@@H]2C(=O)N(Cc3ccccc3)C(=O)[C@H]12)c1ccc(F)cc1
- VDR inh: 6%
COc1ccc(OCC2NCCc3cc(OC)c(OC)cc32)cc1 (stereo unspecified)
- VDR inh: -12%
COc1ccc(-c2nc(SCC(=O)Nc3ccc4c(c3)OCCO4)c(-c3ccc(F)cc3)[nH]2)cc1
- VDR inh: 13%
O=C(COC(=O)c1nc(Cl)ccc1Cl)Nc1ccc(Cl)cn1
- VDR inh: -12%
CCOC(=O)c1c(C)[nH]c(C)c1C(=O)COC(=O)c1cc2ccccc2cc1OC
- VDR inh: -15%
CCC(C)[C@H](NC(=O)NCCCn1ccnc1)C(=O)OC (stereo partly specified)
- VDR inh: 3%
COC(=O)c1sc2cccc(F)c2c1S(=O)(=O)N1CCN(c2cccc(OC)c2)CC1
- VDR inh: 9%
N#Cc1nc(-c2cccc(Cl)c2)oc1NCc1cccnc1
- VDR inh: -9%
COc1ccc(-c2[nH]ncc2CN2CCC(O)(c3ccc(Cl)cc3)CC2)cc1
- VDR inh: 13%
C/C(=N\Nc1nc(-c2cc(C)ccc2C)cs1)c1cc2c(ccc3ccccc32)oc1=O
- VDR inh: -9%
COc1cc(OC)c2c(C)cc(=O)oc2c1C(CCN1CCN(c2ccccc2)CC1)c1ccc2c(c1)OCO2 (stereo unspecified)
- VDR inh: -18%

COc1ccc(C(=O)NC(=S)N2CCCC2)cc1
- VDR inh: -16%
Cc1ccc(OCc2nnc(NC(=O)OCC(C)C)s2)cc1
- VDR inh: -7%
C=CCN=C1NN=C(c2ccc3c(c2)OCCO3)CS1
- VDR inh: -11%
Cc1ccc2oc(C(=O)Nc3sc4c(c3C(=O)NCc3cccnc3)CCCC4)cc(=O)c2c1
- VDR inh: 8%
O=C1NC(=O)/C(=C/c2ccccc2Oc2ccc(Cl)cc2)S1
- VDR inh: 0%
O=S(=O)(c1ccc(Cl)cc1)N1CCc2ccccc21
- VDR inh: -7%
Cc1cccc(C(=O)NCC(=O)NC2CCN(Cc3ccccc3)CC2)c1
- VDR inh: -6%
FC(F)(F)c1nnc2c(Sc3ccc(Cl)cc3)nc3ccccc3n12
- VDR inh: -4%
COCc1c(C(=O)NCCc2ccc(OC(F)F)cc2)oc2ccccc12
- VDR inh: -4%
CCN(CC)S(=O)(=O)c1cccc(NC(=O)CCNC(=O)c2ccc([N+](=O)[O-])cc2)c1
- VDR inh: -14%
CC(=O)c1c(C)[nH]c(C(=O)N2c3ccccc3CC2C)c1C (stereo unspecified)
- VDR inh: -18%
CN1CCN(c2ccncc2S(=O)(=O)N2CCCCC2)CC1
- VDR inh: ?
CCOc1ccc(NS(=O)(=O)c2ccc3[nH]cc(C(=O)NCC4CCCO4)c(=O)c3c2)cc1 (stereo unspecified)
- VDR inh: -3%&-7%
Cc1ccc(S(=O)(=O)Nc2cc3c4c(c2)C(C)C(=O)N4CCC3)cc1 (stereo unspecified)
- VDR inh: 1%
NS(=O)(=O)c1ccc(NC(=O)COC(=O)Cn2cnc3ccccc3c2=O)cc1
- VDR inh: 1%

CCOC(=O)C1=C(C)Nc2nc3ccccc3n2C1c1ccc(O)cc1 (stereo unspecified)
- VDR inh: 7%
COC(=O)C[C@H](NC(=O)Cn1cnc(C(=O)Nc2ccc(C)c(C)c2)n1)C(=O)OC
- VDR inh: -18%
Cc1ccc(C)c(S(=O)(=O)N2CCN(C(=O)[C@@H]3CCCN3C(=O)c3cccs3)CC2)c1
- VDR inh: 1%
Cc1cc(C)nc(NS(=O)(=O)c2ccc(NC(=O)Cc3ccccc3F)cc2)n1
- VDR inh: -19%
COC(C[C@@H](O)C[C@@H](O)COCc1ccccc1)OC
- VDR inh: -8%
Nc1nc(SCC(=O)N2CCN(c3ccc(F)cc3)CC2)n[nH]1
- VDR inh: ?
CC(=O)Nc1cccc(NC(=O)c2ccc(COc3ccccc3)cc2)c1
- VDR inh: -11%
C=CCn1c(Cc2c[nH]c3ccccc23)nnc1SCC(=O)NCc1ccccc1
- VDR inh: -4%
COc1ccc(S(=O)(=O)N2CCOCC2)cc1NC(=O)Cc1ccsc1
- VDR inh: 1%
CCNC(=O)Cn1cc(C#N)c2ccccc21
- VDR inh: -8%
C/C(=N\NS(=O)(=O)c1ccc([N+](=O)[O-])cc1)c1cccs1
- VDR inh: ?
N=C(N)SCCc1cnc[nH]1
- VDR inh: -17%&-14%
CCN(CC)c1nc(-c2ccccc2)nc2ccccc12
- VDR inh: -18%
CCOc1ccc(C(=O)CCC(=O)N2CCN(c3ccc(O)cc3)CC2)cc1
- VDR inh: ?
CSc1ccc(C2c3c(-c4ccccc4O)n[nH]c3C(=O)N2Cc2ccncc2)cc1 (stereo unspecified)
- VDR inh: 18%

Cc1nc2c(C(=O)NCc3ccccc3)c[nH]n2c(=O)c1Cl
- VDR inh: 9%
COCC(=O)NC(c1ccccc1)c1ccccc1
- VDR inh: 4%
COc1ccc(C=O)cc1CN1CCCN(Cc2ccc(Cl)cc2)S1(=O)=O
- VDR inh: 7%
COCCCNC(=O)CC(NS(=O)(=O)c1ccc(C)cc1)c1ccc(OC)cc1 (stereo unspecified)
- VDR inh: 23%
O=C(CSc1nnc(-c2cccnc2)o1)Nc1ccccc1Br
- VDR inh: -24%
N#CC1=C(Nc2ccc(Br)cc2)CCC1
- VDR inh: -4%
COc1ccc(-c2nc3nc(C)cc(C)n3n2)cc1
- VDR inh: 10%
COc1ccc(-c2csc3nc(C)nc(N4CCN(c5ccc(C(C)=O)cc5)CC4)c23)cc1OC
- VDR inh: 4%
COc1cccc2c1C(=O)C[C@]1(CCCC[C@@H]1C)O2
- VDR inh: 4%
CCOC(=O)c1c(CSc2ccccc2)oc2ccc(O)cc12
- VDR inh: -7%
Cc1cc(=O)n2[nH]c(NCc3ccccc3F)nc2n1
- VDR inh: -1%
CCN(CC)C(=O)C1CC(c2ccc(OC)cc2)=NO1 (stereo unspecified)
- VDR inh: 0%
C=CCNC(=S)N/N=C/c1ccc(-c2ccc(OC)cc2)o1
- VDR inh: 1%
O=C(Cc1cccs1)N/N=C\c1ccc(O)cc1
- VDR inh: -13%
O=C(OCC(=O)N1c2ccccc2Sc2ccccc21)C1CC(=O)N(Cc2ccco2)C1 (stereo unspecified)
- VDR inh: -3%
CC(C)COC(=O)NCCOC(=O)Nc1cccc(Cl)c1
- VDR inh: -15%
COC(=O)Cc1c(CSc2ccccc2)oc2ccc(O)c(CN(C)C)c12
- VDR inh: 1%

An excerpt (hit frequency here may not be typical).
